gsp antagonist: gsp mutant antagonism; gsp-mutant cells, cAMP HTRF, 30 min; control for the full effect not named in the record; Potency, µM (highest dose often 76.9 µM), for the others: top-dose activity change, negative = inhibition, hits mostly inhibitors; actives 0.4% (n = 340,000); AID 624288; active = falling curve of any shape with a large fitted effect; inconclusive = falling curve, mostly with a smaller effect; inactive = flat or rising curve; cell line not stated here;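 note: intracellular cAMP measured with PDE inhibitor Ro 20-1724 present during compound exposure; potency is the fitted concentration of half-maximal effect; % is set by controls: 0 for no effect and ±100 for the full control effect; nearly all actives have a fitted effect of over 65% in size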
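Measurement of cellular cAMP by homogeneous time-resolved fluorescence following a 30 min compound exposure at 37C. The PDE inhibitor […] was present throughout; the assay buffer was DPBS with 0.05% BSA and 0.005% Tween 20.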
gsp agonist: agonists of gsp mutant (McCune-Albright syndrome); gsp mutant cells, cAMP HTRF, 30 min; control for the full effect not named in the record; Potency, µM (highest dose often 76.9 µM), for the others: top-dose activation (cAMP increase), most hits filed as activators; actives 0.13% (n = 340,000); active = well fitted activation curve with a large enough effect; inconclusive = small, poorly fitted or top-dose-only effect, or another doubt; inactive = no such curve, though single readings can be large or run the other way; cell line not stated here;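 note: phosphodiesterase inhibitor Ro 20-1724 added with compounds to block cAMP breakdown; potency is the fitted concentration of half-maximal effect; nearly all actives have a fitted effect of over 60% in size; about a fifth of the inactives were tested at one dose only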
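Cells stably selected in G418 were plated at 2000/well, grown 16-24 hr, then given compounds in DMSO with the PDE inhibitor […] (300 uM solution added) for 30 min at 37C; cAMP was read by HTRF.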
Menin MLL FP FL: displaces fluorescein MLL peptide from human menin; Fluorescence polarization, fluorescein-MLL peptide displacement from menin; 290,000 tested, under 10 active; FP activity change, % at 61.4 µM; inconclusive = falling polarisation curve, or a change in total fluorescence; inactive = total fluorescence flat and polarisation flat or rising; no compound was filed as active; the % refers to the polarisation; negative = inhibition;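 note: % of control where 0% means no effect; inhibitors lower the polarisation; unlabelled MLL peptide was the positive control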
Sfp PPTase inh: inhibitors of Bacillus subtilis Sfp phosphopantetheinyl transferase; Biochemical Sfp PPTase activity, qHTS; Potency, µM, inactives show max response, negative = inhibition, hits mostly inhibitors; actives 3.5% (n = 310,000); active = well fitted inhibition curve with a large enough effect; inconclusive = small, poorly fitted or top-dose-only effect, or another doubt; inactive = no such curve, though single readings can be large or run the other way;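 note: the enzyme is Sfp with the accession as filed and its product quenches rhodamine fluorescence; potency is the fitted concentration of half-maximal effect; 0% = enzyme reaction without inhibitor and -100% = no enzyme wells; top concentration of the series not given in the record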
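Buffer: 50 mM Hepes-Na pH 7.6, 10 mM MgCl2, 0.01% Nonidet P-40, 0.01% BSA. Enzyme 15 nM, pre-exposed to compound 15 min; substrates then added and fluorescence change tracked over 30 min.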
D2 ag: agonists of human D2 dopamine receptor (beta-arrestin) | P14416 | DiscoveRx PathHunter D2 beta-arrestin, luminescence, 90 min; 100% = 57 uM dopamine signal | activation, % (no concentration beside the values) | actives 0.084% (n = 360,000) | AID 624465; in the data active = activation above about 40%; inconclusive = about 15% to 40%; inactive = below about 15%; note: compound concentration not given in the record; the text of the record calls up to 30% inactive
Target sequence (P14416 whole entry, looked up): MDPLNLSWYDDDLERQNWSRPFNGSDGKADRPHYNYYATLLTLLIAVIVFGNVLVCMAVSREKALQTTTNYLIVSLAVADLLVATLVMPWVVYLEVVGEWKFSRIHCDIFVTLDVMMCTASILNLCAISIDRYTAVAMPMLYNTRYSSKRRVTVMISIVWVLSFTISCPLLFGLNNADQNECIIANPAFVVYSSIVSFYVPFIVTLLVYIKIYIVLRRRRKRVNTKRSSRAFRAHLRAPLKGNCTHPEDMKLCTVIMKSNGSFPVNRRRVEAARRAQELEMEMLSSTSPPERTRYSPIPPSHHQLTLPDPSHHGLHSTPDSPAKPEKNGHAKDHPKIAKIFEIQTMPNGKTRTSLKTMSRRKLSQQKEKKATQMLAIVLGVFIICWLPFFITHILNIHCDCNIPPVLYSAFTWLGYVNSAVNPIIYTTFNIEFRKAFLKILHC
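Agonist mode: compounds alone added to overnight-plated D2 PathHunter cells for 90 min at 37 C, with 57 uM final dopamine (EC100) defining full response. Beta-arrestin recruitment detected by chemiluminescent reagent, read after 1 h at ambient temperature.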
ClpP mod: qHTS Assay for Activators of ClpP. purified B. subtilis ClpP, FRET peptide cleavage, 20 min. Potency, µM (doses to about 57.5 µM), inactives show top-dose activity change, negative = active. actives 1.9% (n = 340,000). AID 651965, 2013; active = well fitted falling curve with a large enough effect; inconclusive = small, poorly fitted or top-dose-only effect; inactive = no such curve, though single readings can be large or run the other way; note: potency is the fitted concentration of half-maximal effect; the source files actives as falling curves though it sought activators and does not explain the sign; nearly all actives have a fitted effect of over 65% in size; many hits overshoot -100%
Target sequence (P80244 whole entry, looked up): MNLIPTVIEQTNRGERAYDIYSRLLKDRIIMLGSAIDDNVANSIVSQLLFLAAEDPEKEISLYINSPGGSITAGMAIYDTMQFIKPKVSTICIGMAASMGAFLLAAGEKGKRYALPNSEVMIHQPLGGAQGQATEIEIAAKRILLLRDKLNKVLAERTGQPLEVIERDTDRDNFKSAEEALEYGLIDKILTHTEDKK
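FRET quenching reversal measured ClpP activation: 10 microg/mL B. subtilis ClpP at pH 8 with the FRET-FV decapeptide, read at 430 nm after 320 nm excitation. The 20-min minus 0-min signal was scaled between DMSO/no-enzyme wells and ADEP (5.8 microM final).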
PINK1 modulator: changes PINK1 expression. PINK1 immunofluorescence, high-content cytometry, 24 h. Potency, µM (top dose mostly 76.6 µM), without a hit: at the top dose activation (PINK1 increase), actives largely listed as activators. actives 0.2% (n = 410,000). AID 624263; active = well fitted activation curve with a large enough effect; inconclusive = small, poorly fitted or top-dose-only effect; inactive = flat fitted curve, though single readings scatter; cell line not stated here;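 note: potency is the fitted concentration of half-maximal effect; % of control where 0% means no effect; nearly all actives have a fitted effect of over 65% in size; a mitochondrial uncoupler was the plate control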
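Cells are seeded, rested 12 hours, then given compound at five concentrations or DMSO for 24 hours. After fixation, blocking and antibody staining, PINK1 amount and mitochondrial localization are scored; CCCP serves as control.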
* marks the source's active call; other numbers are inactive results; u = inconclusive; x = not tested or not shown; [ ] = remark or other dose.

SMILES	gsp antagonist	gsp agonist	Menin MLL FP FL	Sfp PPTase inh	D2 ag	ClpP mod	PINK1 modulator
COc1ccc2nc(NC(=O)CSC3=NCCS3)sc2c1	1%	-1%	9.0	-13%	-1.3	-0.9%	1.9%
COc1ccc(OC)c(NC(=O)C(=O)/C=C(\O)c2cc(OC)ccc2OC)c1	-20%	14%	5.0	-8%	-3.1	0.3%	13%
Cc1cc(C)nc(Nc2nc(C(N)Cc3ccccc3)cs2)n1 (stereo unspecified)	x	x	x	x	-4.9	0.4%	11%
CC(C)(C)c1ccc(C2(C)NC(=O)N(CC(=O)Nc3ccc4c(c3)OCO4)C2=O)cc1 (stereo unspecified)	-2%	11%	-0.9	17%	3.3	-1.7%	0.5%
Cc1ccc(NC(=O)CSc2nnc(-c3ccc(S(=O)(=O)N4CCOCC4)cc3)n2C)cc1	-10%	-13%	6.6	8%	-1.6	0.0%	u
CC(C)(C)c1ccc(C(=O)Nc2ccc(C(=O)N3CCCC3)cc2)cc1	u	4%	x	-6%	-1.7	-1.5%	4.9%
COc1cc(CNC2CCCCCCC2)cc(Br)c1OCC#N	7%	1%	1.5	15%	-2.5	-1.6%	-0.6%
O=c1[nH]c(CN2CCN(C/C=C/c3ccccc3)CC2)nc2cc(Cl)ccc12	0%	6%	1.5	1%	2.6	0.3%	-1.5%[38.3 µM]
NC(=NC(=O)c1cccc(C(F)(F)F)c1)c1ccc(C(F)(F)F)cn1	-8%	-28%[15.4 µM]	2.2	30%[activator]	-2.8	-5.4%	8.7%
CCCC(C)NC(=O)c1ccccc1SC (stereo unspecified)	11%	u	6.0	9%	-1.4	x	1.2%
O=[N+]([O-])c1ccc(OCn2cncn2)cc1	5%	x	x	x	-2.8	1.9%	1.0%
O=C(CCCN1C(=O)/C(=C\c2ccccc2)SC1=S)Nc1ccccc1O	-7%	-43%	-0.4	18%	-4.5	0.2%	4.9%
CCCNC(=O)C1CN(S(=O)(=O)c2ccc(Cl)s2)c2ccccc2O1 (stereo unspecified)	-2%	-66%[inhibitor]	x	x	3.0	0.7%	8.2%
Nc1cc(Cl)ccc1C(=O)OCC(=O)N1CCOCC1	6%	u	-1.4	14%	-1.8	3.5%	-0.1%
O=C(NCc1ccccc1Cl)c1cccc(NC(=O)c2ccccc2)c1	-12%	0%	0.1	0%	0.1	-2.4%	2.1%
COc1ccc(F)cc1S(=O)(=O)Nc1ccc2c(c1)OCO2	-12%	u	0.6	-1%	-2.1	-2.2%	5.4%[38.3 µM]
COc1cccc(NC(=O)N2CCN(c3cccc(C)c3)C(C)C2)c1 (stereo unspecified)	-15%	17%	1.2	24%	-1.5	-0.1%	-1.7%
COc1ccc(N2CCN(Cc3nc4c(c(=O)[nH]c(=O)n4C)n3Cc3cccc(Cl)c3)CC2)cc1	0%	u	-4.4	-5%	-3.4	1.4%	0.1%
CCOC(=O)C(C)n1nc(/C=C/c2ccccc2)ccc1=O (stereo unspecified)	2%	u	-0.8	20%	6.0	u	2.2%
O=c1cc(NCCCO)c2ccccc2o1	18%	u	-0.7	1%	0.8	-1.1%	-1.4%
COc1ccc(S(=O)(=O)N2CCC(C(=O)NC3CCCC3)CC2)cc1OC	8%	u	x	24%	0.0	0.8%	-1.9%
Cc1ccc(-c2csc(NCCn3c(C(F)(F)F)nc4ccccc43)n2)cc1	-6%	x	-0.5	7%	-3.4	3.3%	8.1%
Cc1cc(C)n(CCCNC(=O)c2cc(COc3ccc(C)c(C)c3)on2)n1	-14%	3%[15.4 µM]	x	13%	3.7	-12%	0.2%
O=C(CSCc1ccc([N+](=O)[O-])cc1)Nc1cccc(C(=O)Nc2ccccc2C(=O)O)c1	-28%	-18%	4.9	14%	-2.8	1.3%	-0.5%[38.3 µM]
O=C(N/N=C/c1ccc([N+](=O)[O-])cc1)c1cccs1	-1%	7%	4.4	-8%	11	2.1%	1.1%

Compound profiles, as listed above. Screens in order: gsp antagonist, gsp agonist, Menin MLL FP FL, Sfp PPTase inh, D2 ag, ClpP mod, PINK1 modulator
`O=[N+]([O-])c1ccc(OCn2cncn2)cc1` reads 5%, x, x, x, -2.8, 1.9%, 1.0%
`COc1ccc(F)cc1S(=O)(=O)Nc1ccc2c(c1)OCO2` reads -12%, u, 0.6, -1%, -2.1, -2.2%, 5.4%[38.3 µM]

New compounds follow:
SMILES	gsp antagonist	gsp agonist	Menin MLL FP FL	Sfp PPTase inh	D2 ag	ClpP mod	PINK1 modulator
CC(=O)Nc1ccc(S(=O)(=O)NC2(C(F)(F)F)C(=O)Nc3c2c(=O)[nH]c(=O)n3Cc2cccnc2)cc1 (stereo unspecified)	14%	-1%[15.4 µM]	-3.1	14%	-1.8	x	2.0%
Cc1ccc(Cn2nnc3c(=O)[nH]c(C4CCCN(S(=O)(=O)c5ccccc5F)C4)nc32)cc1 (stereo unspecified)	8%	18%[15.4 µM]	1.0	-6%	-7.9	-1.6%	13%
CC(=O)Nc1nc2ccccc2n1CCOc1ccccc1Cl	4%	-33%[inhibitor]	2.2	26%	-4.0	33%	-0.8%
CC1CCCN(CC(=O)Nc2ccc(S(=O)(=O)N3CCCC3)cc2)C1 (stereo unspecified)	0%	-10%[15.4 µM]	u	18%	-0.5	x	0.1%
Cc1ccccc1NC(=S)NC(=O)COc1ccccc1C	-9%	-27%	x	-3%	-2.3	-1.1%	-1.0%
Cc1ccc(S(=O)(=O)N(C)c2c(C)ccc(S(=O)(=O)Nc3ccncc3)c2C)cc1	-1%	-76%[inhibitor]	3.1	8%	2.2	-0.9%	0.4%
O=C(CCl)N1CCCC1c1ccc2c(c1)OCCO2 (stereo unspecified)	3%	-7%[15.4 µM]	x	10%	-6.4	x	1.9%
Fc1cccc(CSc2ncnc3c2oc2ccccc23)c1	18%	u	1.6	-6%	-3.1	-5.5%	4.1%[38.3 µM]
CCOc1ccc(C(=O)N[C@H](C(=O)NNC(=O)c2cccs2)C(C)C)cc1	10%	-2%[15.4 µM]	x	x	-2.6	1.4%	2.8%
CC(=O)N1CCN(c2ccc(NC(=O)c3ccco3)cc2)CC1	-7%	-6%	8.3	2%	-1.5	x	-0.1%
O=C1CCCc2c1ccc1ccccc21	2%	-3%[15.4 µM]	x	x	1.2	-3.1%	2.2%
CCOC(=O)C(CCCCCOc1ccc([N+](=O)[O-])cc1)C(=O)OCC	u	5%	-0.8	-3%	-1.6	-0.7%	-5.0%[38.3 µM]
CCOC(=O)C=Nc1c(N)n(C)c(=O)n(C)c1=O	13%	2%	u	-31%	-1.5	198%	4.1%
CC(OC(=O)c1ccc(O)cc1)C(=O)Nc1ccc(Oc2ccccc2)cc1 (stereo unspecified)	u	-31%[15.4 µM]	x	x	0.7	1.7%	4.6%
C=CCn1c(CNC(=O)c2ccco2)nnc1SCC(=O)Nc1cccc(Br)c1	-3%	1%	2.6	5%	-3.8	0.9%	5.4%[38.3 µM]
O=C(Cn1nnc(-c2ccccc2)n1)NCc1ccco1	3%	-7%	4.0	11%	-2.6	1.6%	3.1%
O=c1c2ccccc2cnn1Cc1n[nH]c(=S)n1-c1ccccc1Cl	-10%	u	x	-25%	1.0	-3.1%	-1.2%
CN1CCN(CCOc2ccc(Cl)c(Cl)c2)CC1	10%	6%[15.4 µM]	x	-29%	-2.2	1.6%	1.4%
CC(=O)Nc1ccc(NC(=O)C(=O)NCC(c2ccco2)N2CCc3ccccc32)cc1 (stereo unspecified)	5%	u	x	x	5.3	-1.9%	-1.5%
CC1CCc2c(sc3[nH]c(=S)n(C)c(=O)c23)C1 (stereo unspecified)	-10%	9%[15.4 µM]	-3.4	79µM*	-8.0	x	1.6%
COc1cc(/C=N/NC(=O)c2ccccn2)ccc1OC(=O)c1cccs1	-3%	-20%	x	-6%	-0.7	-3.5%	1.8%
Cc1nc2ccc(S(=O)(=O)NC(CC(C)C)C(=O)O)cc2s1 (stereo unspecified)	-1%[15.4 µM]	-3%	1.5	-20%	-3.2	-1.2%	0.5%
COc1ccc(OC(C)C(=O)Nc2ccc([N+](=O)[O-])cc2)cc1 (stereo unspecified)	-5%	2%[15.4 µM]	-1.0	19%	-3.8	x	-0.8%
Cn1cc(/C=N/NC(=O)c2cc3cc(Br)ccc3o2)c2ccccc21	-4%	4%[15.4 µM]	3.2	-5%	-2.5	-3.9%	2.9%
CC(=O)N1CCN(C(=O)CNC(=O)c2ccc(C)s2)CC1	5%	-26%	x	x	-3.3	1.7%	1.6%

The results go on.
SMILES	gsp antagonist	gsp agonist	Menin MLL FP FL	Sfp PPTase inh	D2 ag	ClpP mod	PINK1 modulator
COc1nc(OCCNC(=O)Nc2ccccc2)nc(N(C)C)n1	4%	-22%	-1.6	-2%	1.7	-2.2%	-0.5%
Cc1ccc(S(=O)(=O)CC(O)CN2CCCC2=O)cc1 (stereo unspecified)	12%	-60%[inhibitor]	3.3	8%	0.7	-1.6%	-1.3%
COc1ccccc1CNC(=O)CCS(=O)(=O)c1ccc2c(c1)CCCN2C(C)=O	3%	2%	5.0	5%	-1.9	-0.5%	4.2%
CCSc1nsc(NC(=O)Nc2ccccc2F)n1	u	2%[15.4 µM]	2.9	6%	2.1	-1.8%	u
COc1cc(/C=N/NC(=O)CCNC(=O)c2ccccc2Cl)ccc1O	1%	-43%[inhibitor]	-4.9	18%	-5.0	-16%	-2.0%
C/C(CC(=O)Nc1cccc(Cl)c1C)=N\NC(=O)C(=O)NCC(C)C	2%	-27%	-0.1	3%	-3.0	0.9%	-2.1%
CC(NC(=O)NC12CC3CC(CC(C3)C1)C2)C1CCCO1 (stereo unspecified)	12%	19%	-4.1	5%	-1.0	0.7%	1.4%
CS(=O)(=O)c1cc(C(=O)O)cc(NCc2ccccc2)c1Oc1ccccc1	x	-6%	x	x	-4.3	4.8%	2.0%

2 entries from above, set out differently:
| smiles | gsp antagonist | gsp agonist | Menin MLL FP FL | Sfp PPTase inh | D2 ag | ClpP mod | PINK1 modulator |
| --- | --- | --- | --- | --- | --- | --- | --- |
| Cc1ccc(S(=O)(=O)CC(O)CN2CCCC2=O)cc1 (stereo unspecified) | 12% | -60%[inhibitor] | 3.3 | 8% | 0.7 | -1.6% | -1.3% |
| COc1ccc(F)cc1S(=O)(=O)Nc1ccc2c(c1)OCO2 | -12% | u | 0.6 | -1% | -2.1 | -2.2% | 5.4%[38.3 µM] |
